# Screening results deposited in PubChem BioAssay by National Center for Advancing Translational Sciences (NCATS).
# RE007 growth inh – less growth of the S. pombe RE007 Vpr strain; Potency, µM (highest dose often 92.2 µM), inactives show top-dose activity change, negative = less growth; 360,000 compounds, 0.21% hits; AID 651644; S. pombe RE007 Vpr strain, BacTiter-Glo ATP luminescence, 24 h; control for the full effect not named in the record; active = well fitted falling curve with a large enough effect; inconclusive = small, poorly fitted or top-dose-only effect; inactive = no such curve, though single readings can be large or run the other way;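 also: % is scaled to controls: 0 for no effect and ±100 for the full control effect; nearly all actives have a fitted effect of over 50% in size; the assay follows cell death caused by Vpr and the record does not say whether a fall means rescue or toxicity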
#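 Fission yeast strain RE007, carrying one chromosomally integrated HIV-1 vpr copy, was seeded at OD 0.01 in PMG+AL medium with 23 nL pinned compound. After 24 h at 30 °C and 99% humidity, viability was read by BacTiter-Glo luminescence.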
# 2A StopGo – FMDV 2A StopGo reporter, luciferase signal; 410,000 compounds, 1.2% hits; human cells with a luciferase reporter of 2A StopGo recoding; control for the full effect not named in the record; Potency, µM (titrated, usually from 57.9 µM), for inactives: top-dose signal change, negative = less light; AID 1159524; active = well fitted falling curve with a large enough effect; inconclusive = small, poorly fitted or top-dose-only effect; inactive = no such curve, though single readings can be large or run the other way; tested in HEK293T cells; also: % is scaled to controls: 0 for no effect and ±100 for the full control effect; nearly all actives have a fitted effect of over 45% in size; luciferase light after 4 h
# NS1 function inh – blocks influenza NS1 protein function. 270,000 compounds, 0.4% hits. S. cerevisiae slowed by influenza A NS1, growth recovery by OD600. Potency, µM (titrated, usually from 46.1 µM), for the others: at the top dose activity, positive = more growth; also: actives are rising curves; nearly all actives have a fitted effect of over 50% in size
#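 Read-out: OD600 growth recovery of NS1-expressing budding yeast. Cells grown overnight at 30C in -URA glucose medium, washed, resuspended and diluted 1:100 in 2% galactose assay medium, pH 6.0. Same strain lacking NS1 served as positive control.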
# SARS PLP yeast – blocks SARS-CoV papain-like protease in a yeast assay; S. cerevisiae expressing SARS-CoV PLpro, growth rescue; control for the full effect not named in the record; Potency, µM (series often up to 32.9 µM), for the others: at the highest dose activity, positive = growth rescue; 330,000 compounds, 0.19% hits; AID 485353; also: 0% is about no effect; nearly all actives have a fitted effect of over 55% in size; growth read by luminescence after 48 h
# Cruzain inh noDet – inhibitors of Trypanosoma cruzi cruzain without detergent; P25779; purified cruzain, Z-FR-AMC fluorescence, no detergent; Potency, µM, inactives show max response, negative = inhibition, usual class: inhibitors; 200,000 compounds, 2.3% hits; active = well fitted curve in the direction sought with a large enough effect; inconclusive = small, poorly fitted or top-dose-only effect, or another doubt; inactive = no such curve, though single readings can be large; an effect the other way counts as inactive or inconclusive;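 also: plate controls were enzyme without inhibitor for no effect and buffer without enzyme for full effect; nearly all actives have a fitted effect of over 40% in size; top concentration of the series not given in the record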
# Target sequence (P25779 123-467 limits assumed): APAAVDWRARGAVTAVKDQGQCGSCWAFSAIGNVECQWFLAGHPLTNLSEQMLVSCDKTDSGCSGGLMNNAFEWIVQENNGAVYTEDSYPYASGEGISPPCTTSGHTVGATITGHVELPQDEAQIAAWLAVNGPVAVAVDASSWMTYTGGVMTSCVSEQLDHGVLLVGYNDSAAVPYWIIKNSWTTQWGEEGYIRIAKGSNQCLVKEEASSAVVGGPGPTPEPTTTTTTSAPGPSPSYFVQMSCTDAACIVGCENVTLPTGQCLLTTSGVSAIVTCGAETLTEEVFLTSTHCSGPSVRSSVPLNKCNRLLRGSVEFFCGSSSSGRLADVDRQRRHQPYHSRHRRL
#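 Detergent-free condition (0.00005% Triton X-100) in acetate buffer pH 5.5 with DTT. 1.5 nM enzyme and compound were pre-mixed 15 min, then 2 uM Z-FR-AMC substrate added; reaction progress from fluorescence change between first and third reads (60 s).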
# Lassa entry inh – Lassa virus entry inhibition. 300,000 compounds, 1.2% hits. Lassa virus pseudotype entry inhibition, cell reporter; control for the full effect not named in the record. Potency, µM (series often up to 37.9 µM), for inactives: at the highest dose activity change, negative = inhibition, actives largely listed as inhibitors. AID 540256; active means well fitted inhibition curve with a large enough effect; inconclusive means small, poorly fitted or top-dose-only effect, or effect the other way; inactive means flat fitted curve, though single readings scatter; tested in HEK293 cells; also: % is scaled to controls: 0 for no effect and ±100 for the full control effect; nearly all actives have a fitted effect of over 50% in size; luciferase read-out
# Cruzain Triton – blocks cruzain activity in presence of Triton detergent; purified cruzain, Z-FR-AMC fluorescence, 0.01% Triton; Potency, µM, for inactives: max response, negative = inhibition, most hits filed as inhibitors; 200,000 compounds, 0.43% hits; AID 1478; active = well fitted curve in the direction sought with a large enough effect; inconclusive = small, poorly fitted or top-dose-only effect, or another doubt; inactive = no such curve, though single readings can be large; an effect the other way counts as inactive or inconclusive;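 also: plate controls were neutral wells for no effect and buffer without enzyme for full effect; nearly all actives have a fitted effect of over 40% in size; top concentration of the series not given in the record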
#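 Z-FR-AMC hydrolysis (2 uM substrate) by cruzain (1.5 nM) monitored kinetically at ex 360/em 450 nm after 15 min room-temperature compound exposure; 0.01% Triton X-100, pH 5.5, 5 mM DTT.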
# Marburg entry inh – inhibitors of Marburg virus binding or cell entry. Potency, µM (highest dose often 37.8 µM), without a hit: at the top dose activity change, negative = inhibition, hits mostly inhibitors. Marburg virus pseudotyped entry inhibition, cell reporter; control for the full effect not named in the record; about a third of the inactives were read at about 46 µM. 300,000 compounds, 1.8% hits; active = well fitted inhibition curve with a large enough effect; inconclusive = small, poorly fitted or top-dose-only effect, or effect the other way; inactive = flat fitted curve, though single readings scatter; tested in HEK293 cells; about a fifth of its hits are not listed in these tables; also: % is scaled to controls: 0 for no effect and ±100 for the full control effect; luciferase read-out
# Starred values were filed as active, the others as inactive; ? = inconclusive; nt = no result given; & = joins results of further samples; [ ] = another dose, or the depositor's remark. Unless noted, calls follow the shape of the dose curve; as a rule, active means well fitted rising curve with a large enough effect; inconclusive means small, poorly fitted or top-dose-only effect; inactive means no such curve, though single readings can be large or run the other way. Potency is read from the fitted curve at half-maximal effect.
SMILES,RE007 growth inh,2A StopGo,NS1 function inh,SARS PLP yeast,Cruzain inh noDet,Lassa entry inh,Cruzain Triton,Marburg entry inh
COc1ccccc1NC1=Nc2cccc3cccc1c23,?,1.1%,-4.7%,0.0%,nt,2.7%,nt,-29.1%[46.1 µM]
CCOCc1nnc(NC(=O)c2ccc3c(c2)OCO3)s1,7.5%,52.4%[activator],nt,nt,nt,0.9%,nt,29.3%
O=C(Nc1c2c(nn1-c1ccc(F)cc1)CS(=O)C2)c1ccc2c(c1)OCO2 (stereo unspecified),1.9%,-18.1%,3.4%,-3.9%,nt,12.3%,nt,8.4%
COc1ccc(OC)c(N=C(C)C2=C(O)COC2=O)c1,-5.7%,2.0%,-2.6%,-7.1%,0.1%,-20.8%,-1.9%,-18.8%&-18.8%[46.1 µM]
CC1(C)C(=O)Nc2ccccc2N1C(=O)COC(=O)/C=C/c1ccc(OC(F)F)cc1,9.4%,-29.0%,nt,-2.9%,nt,0.4%,nt,-10.6%
COc1ccc(CNC(=O)c2cc3c(=O)n(Cc4cccs4)ccc3nc2C)cc1,nt,10.3%,nt,nt,?,-26.2%[46.1 µM],-6.1%,nt
CCN(CC)C(=O)c1ccc(S(=O)(=O)Cc2ccc(C)cc2)c([N+](=O)[O-])c1,-5.3%,?,-9.1%,-4.7%,nt,nt,nt,nt
O=C(CN1C(=O)c2cccc3cccc1c23)NCc1ccc2c(c1)OCO2,8.3%,-6.7%,-6.0%,4.1%,-23.3%,9.2%,2.0%,-16.1%
COCCCNC(=O)Cn1c(=O)n(-c2cccc(C)c2)c(=O)c2c1c1cc(C)ccc1n2C,nt,2.1%,nt,nt,6.7%,3.9%[46.1 µM],0.7%,nt
O=C(Cc1ccccn1)Nc1ccccc1,-2.0%,13.6%,0.0%,2.0%,-2.5%,24.6%,-3.7%,1.1%
Cc1cc(C)n(-c2cc(N3CCN(C(=O)c4cccc(F)c4)CC3)ccc2[N+](=O)[O-])n1,-1.6%,?,-15.6%,27.9%,8.2%,?,-10.4%,-26.6%
COc1ccc(NC2CS(=O)(=O)CC2OC(=O)c2ccc(F)cc2)cc1 (stereo unspecified),-13.5%,-13.6%,1.5%,13.6%,1.1%,1.1%,2.1%,5.2%
Cc1n[nH]c(C)c1S(=O)(=O)N(CC(=O)NCc1ccccc1Cl)c1ccc(C(C)C)cc1,nt,-29.4%,nt,nt,-5.4%,?,-10.4%,?
CCc1ccc(/C=C2\SC(=S)N(CCC(=O)N3CCN(C)CC3)C2=O)cc1,5.1%,22.2%,2.8%,4.5%,nt,nt,nt,nt
CN(/N=C/c1cc(Br)cc(Br)c1O)c1ccccc1,-10.8%,27.0%,-6.2%,-1.4%,nt,nt,nt,nt
S=C(Nc1ccc(Cl)cc1)Nc1ccc2cn[nH]c2c1,9.1%,22.4%,-9.0%,0.4%,nt,nt,nt,nt
COCCn1c(CNC(=O)c2cc(OC)c(OC)c(OC)c2)nc2cccnc21,nt,-8.9%,nt,nt,0.4%,?,-1.6%,nt
Cc1ccc(CNC(=O)CN2C(C)CCCC2C)cc1 (stereo unspecified),-10.6%,-8.9%,2.6%,-1.4%,nt,-6.7%[46.1 µM],nt,21.2%[46.1 µM]
Cc1ccc(Cl)c(OCC(=O)Nc2cccnc2)c1,13.9%,61.4%[activator],-10.9%,-0.9%,nt,nt,nt,nt
COc1cc(C(=O)NCc2nnc(SCC(=O)NC3CCCCC3)o2)cc(OC)c1OC,-6.4%,20.4%,15.2%,-0.6%,nt,8.3%[46.1 µM],nt,11.7%[46.1 µM]
COCCN(C(=S)Nc1cccc(C)c1)C(C)c1cccnc1 (stereo unspecified),-20.2%,-10.9%,nt,-4.6%,nt,15.5%,nt,3.0%[46.1 µM]
CCCCNC(=O)Nc1nnc(-c2ccc(OCC)cc2)o1,1.0%,31.6%[activator],-17.4%,7.6%,-2.9%,-0.2%,0.1%,-11.1%
CCN(CC)S(=O)(=O)c1cccc(C(=O)NNC(=O)C2=NN(c3ccccc3)C(=O)CC2)c1,-0.6%,-1.2%,-1.1%,1.7%,nt,nt,nt,nt
CCN(c1ccccc1)S(=O)(=O)c1ccc(Cl)c(NC(=O)COC(=O)c2ccc(Cl)c(N)c2)c1,2.3%,-9.2%,4.8%,-21.5%,25.1µM*,0.5%,-4.0%,?
OC(COC(c1ccc(Cl)cc1)c1ccc(Cl)cc1)CN1CCc2ccccc2C1 (stereo unspecified),0.1%,-29.6%,-39.4%,-37.2%,-8.2%,?,-6.1%,?
CC(=O)COc1ccc2c(-c3ccccc3)cc(=O)oc2c1C,3.8%,-10.2%,-43.9%,-0.8%,nt,-21.5%,nt,-11.3%
CC(C)NC(=O)c1cc2c(Cl)nc3ccccc3c2s1,nt,-27.0%,nt,nt,-0.2%,1.3%[46.1 µM],4.6%,21.2%[46.1 µM]
OCCCN1CCN(CCCOc2ccccc2-c2ccccc2)CC1,-1.3%,-6.1%,11.4%,2.1%,-2.8%,-15.6%,-2.2%,-15.8%
CCOC(=O)c1cc(-c2ccccc2)sc1NC(=O)c1cc(OC)c(OC)c(OC)c1,-5.3%,0.3%,21.3%,18.9%,-20.9%,3.5%,-0.9%,7.8%
CC(C)CCSc1nnc(N)s1,-0.3%,12.9%,-17.8%,0.8%,nt,nt,nt,nt
COc1ccccc1N1CCN(CC(=O)c2c(C)[nH]c3cc(C)ccc23)CC1,1.0%,?,-5.4%,8.1%,-3.2%,-10.0%,-3.1%,?
CC(C)Cc1cc(C(=O)NCCCN2CCOCC2)no1,-0.8%,-5.8%,2.9%,-5.8%,nt,nt,nt,nt
CNc1ccc(N=Nc2cccc3ncccc23)cc1,-27.8%,-4.9%,nt,nt,nt,?,nt,-27.1%
COc1ccc(Cn2c(SCc3ccc(C(=O)NCc4ccc(C)cc4)cc3)nc3cccnc32)cc1,nt,-22.0%,nt,nt,?,nt,-4.5%,-7.0%[46.1 µM]
CC1CCc2c(sc3nnn(Cc4ccccc4)c(=O)c23)C1 (stereo unspecified),nt,-15.4%,nt,nt,-5.2%,-5.3%[46.1 µM],-4.5%,1.2%[46.1 µM]
O/N=C/Cc1[nH]c2ccccc2c1-c1ccccc1,-0.2%,-3.5%,-0.8%,-0.3%,nt,?,nt,-8.5%[46.1 µM]
Cc1ccc(C2(C)NC(=O)N(CC(=O)NNC(=O)c3ccoc3C)C2=O)cc1 (stereo unspecified),-1.1%,-6.1%,nt,5.7%,nt,11.5%,nt,20.5%
Cc1[nH]n(-c2ccccc2)c(=O)c1C(=O)c1cccc(F)c1,-6.1%,-12.9%,5.5%,0.6%,nt,?,nt,10.3µM*
O=c1c2c([nH]c3ccc(Br)cc13)CCCC2,-5.2%,-2.7%,-104.2%,-14.1%,8.2%,?,1.7%,-24.7%
COc1cccc(-c2cc(C(=O)NCC3CCCO3)c3cc(Br)cc(C)c3n2)c1 (stereo unspecified),6.1%,-15.7%,8.4%,-0.6%,nt,nt,nt,nt
COc1ccccc1CNC(=O)CSc1n[nH]c(N)n1,-12.0%,-6.0%,-0.7%,2.1%,nt,nt,nt,-1.2%[46.1 µM]
Cc1cccc(N2CC(c3nc4ccccc4[nH]3)CC2=O)c1 (stereo unspecified),-14.1%,-15.3%,-3.0%,4.4%,nt,0.6%[46.1 µM],nt,3.1%[46.1 µM]
CC(C)C12CN3CC(C(C)C)(CN(C1)C3c1ccccc1O)C2=O (stereo unspecified),-0.5%,?,-37.1%,-10.9%,-0.9%,-13.0%,0.2%,1.9%
COc1cc2c(=O)c(S(=O)(=O)c3ccccc3)cn(CC(=O)Nc3ccccc3C)c2cc1OC,nt,11.6%,nt,nt,?,18.2%[46.1 µM],-4.3%,-24.2%[46.1 µM]
COC(=O)C1=C(N)Oc2cc(C)n(CC3CCCO3)c(=O)c2C1c1ccc(Cl)c(Cl)c1 (stereo unspecified),-1.5%,-10.4%,2.4%,4.9%,9.5%,-20.9%,-2.6%,?
CC1=NNC(=O)C1Cc1c(Cl)cccc1Cl (stereo unspecified),-10.8%,-0.3%,nt,nt,nt,-5.8%,nt,2.1%
CCOC(=O)C1=NOC(CNC(=O)C2=NOC(CNC(=O)c3c(-c4ccccc4Cl)noc3C)C2)C1 (stereo unspecified),11.1%,-21.2%,-9.0%,-9.6%,23.4%,-7.1%,-0.3%,18.6%
O=CNCc1nc2ccccc2n1CCCc1ccccc1,-12.8%,-15.0%,6.0%,-1.9%,nt,nt,nt,nt
COCCN(C(=O)CSCC(=O)Nc1cccc(C)c1)c1c(N)n(Cc2ccccc2)c(=O)[nH]c1=O,-1.9%,-16.0%,nt,7.8%,nt,-22.9%,nt,28.5%
CCN(CC)CCCNC(=O)CN1C(=O)CSc2ccc(S(=O)(=O)N3CCOCC3)cc21,-3.5%,-10.1%,-1.3%,6.1%,-3.7%,0.3%,-1.8%,?
COCCNC(=S)N=Nc1c(O)[nH]c2ccc([N+](=O)[O-])cc12,0.8%,-0.4%,0.8%,-1.1%,nt,-12.6%,nt,1.4%[46.1 µM]
CCOC(=O)c1c(C)[nH]c(C(=O)OCC(=O)c2ccc3c(c2)NC(=O)CO3)c1C,1.0%,-14.8%,nt,10.1%,nt,-16.6%,nt,-11.9%
COCC(=O)Nc1ccc(S(=O)(=O)Nc2ncccn2)cc1,nt,nt,6.9%,-3.4%,3.3%,nt,1.6%,0.2%
COc1cccc(C(=O)NCCCNC(=O)c2cccnc2)c1,6.2%,-8.7%,?,16.8%,nt,7.2%,nt,14.4%[46.1 µM]
CCc1ccc(CNC(=O)C2CCCN(c3nnc(C)c4c(C)n(-c5ccccc5)nc34)C2)cc1 (stereo unspecified),-8.8%,?,2.8%,-2.9%,2.9%,-24.0%[46.1 µM],-8.4%,nt
Cc1ccc(NC(=O)C2=C(O)CCn3c2nc2ccccc23)cc1,-22.3%,nt,-11.3%,-5.1%,11.3%,2.2%,-6.1%,3.6%
COc1ccc(N)cc1C#N,17.6%,-6.3%,3.2%,9.0%,-10.3%,nt,2.6%,nt
